TRPV1 potentiator: human TRPV1 potentiation; Q8NER1; TRPV1-expressing cells, Fluo-8 calcium influx, capsaicin EC20 potentiation; host cell line not named in the record; control for the full effect not named in the record; potentiation, % at 8.33 µM; 320,000 tested, 0.02% active; AID 540277; active means potentiation above 80%; inconclusive means 30% to 80%; inactive means below 30%; note: 0% is about no effect
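Cells expressing TRPV1 were dye-loaded with Fluo-8 and read kinetically: 10 s baseline, 3 min after compound (agonist portion), then 2 min after EC20 capsaicin (allosteric enhancer portion). Calcium-bound dye fluorescence at 480/520 nm.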
D2 ag: activates the human D2 dopamine receptor; P14416; DiscoveRx PathHunter D2 beta-arrestin, luminescence, 90 min; 100% = 57 uM dopamine signal; activation, % (no concentration beside the values); 360,000 tested, 0.084% active; in the data active = activation above about 40%; inconclusive = about 15% to 40%; inactive = below about 15%; note: compound concentration not given in the record; the text of the record calls up to 30% inactive
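DiscoveRx PathHunter D2 beta-arrestin cells (2,100/well) attached overnight, then compound-stimulated 90 min at 37 C in HBSS/10 mM HEPES/0.1% Tween-20 buffer; beta-galactosidase complementation read by luminescence after 1 h at ambient temperature. Dopamine 57 uM final (EC100) as control.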
D2 potentiator: positive allosteric modulators of human D2 dopamine receptor | P14416 | DiscoveRx D2 beta-arrestin cells, luminescence, 90 min; 100% = 57 uM dopamine signal | potentiation, % (no concentration beside the values) | 360,000 tested, 0.23% active | AID 624464; active = potentiation of 50% or more; inconclusive = 30% to 50%; inactive = 30% or less;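 note: compound concentration not given in the record; tested on top of an EC20 dose of dopamine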
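D2 cells co-treated with compound plus 50 nM dopamine (EC20) for 90 min at 37 deg C to detect potentiation. Beta-arrestin recruitment was read as enzyme-fragment luminescence after 1 h at ambient temperature. Full response was set by 57 uM dopamine.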
CtBP-E1A inh: CtBP/E1A binding inhibition | AlphaScreen GST-E1A/His-CtBP binding, 1536-well; stronger effect = lower value; control for the full effect not named in the record | activity change, % (no concentration beside the values) | 340,000 tested, 0.49% active; in the data active means activity change below about -65%; inconclusive means about -30% to -65%; inactive means above about -30%; note: % is set by controls: 0 for no effect and ±100 for the full control effect; compound concentration not given in the record
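Homogeneous bead-based format: GST-tagged E1A captured on glutathione donor beads, His-tagged CtBP on nickel acceptor beads; compounds precede bead addition by 2 h at 37 °C.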
PINK1 expr mod: changes PINK1 expression; PINK1 immunofluorescence, high-content cytometry, 24 h; Potency, µM (doses to about 76.6 µM), without a hit: at the highest dose activation (PINK1 increase), usual class: activators; AID 624263; 410,000 tested, 0.2% active; active = well fitted activation curve with a large enough effect; inconclusive = small, poorly fitted or top-dose-only effect; inactive = flat fitted curve, though single readings scatter; cell line not stated here;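 note: potency is the fitted concentration of half-maximal effect; % of control where 0% means no effect; nearly all actives have a fitted effect of over 65% in size; a mitochondrial uncoupler was the plate control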
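PINK1 protein level read as immunofluorescence by microplate cytometer in a fixed, stained stable cell line after 24 h exposure to five compound concentrations, with CCCP as control.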
Six1-Eya2 inh: Six1/Eya2 interaction inhibition | AlphaScreen GST-Six1/His-Eya2 binding, biochemical; stronger effect = lower value; control for the full effect not named in the record | activity change, % (no concentration beside the values) | Q15475+O00167 | 360,000 tested, 0.56% active | AID 651725; in the data active = activity change below about -65%; inconclusive = about -30% to -65%; inactive = above about -30%; note: % is set by controls: 0 for no effect and ±100 for the full control effect; compound concentration not given in the record
Target sequence (O00167 whole entry, looked up): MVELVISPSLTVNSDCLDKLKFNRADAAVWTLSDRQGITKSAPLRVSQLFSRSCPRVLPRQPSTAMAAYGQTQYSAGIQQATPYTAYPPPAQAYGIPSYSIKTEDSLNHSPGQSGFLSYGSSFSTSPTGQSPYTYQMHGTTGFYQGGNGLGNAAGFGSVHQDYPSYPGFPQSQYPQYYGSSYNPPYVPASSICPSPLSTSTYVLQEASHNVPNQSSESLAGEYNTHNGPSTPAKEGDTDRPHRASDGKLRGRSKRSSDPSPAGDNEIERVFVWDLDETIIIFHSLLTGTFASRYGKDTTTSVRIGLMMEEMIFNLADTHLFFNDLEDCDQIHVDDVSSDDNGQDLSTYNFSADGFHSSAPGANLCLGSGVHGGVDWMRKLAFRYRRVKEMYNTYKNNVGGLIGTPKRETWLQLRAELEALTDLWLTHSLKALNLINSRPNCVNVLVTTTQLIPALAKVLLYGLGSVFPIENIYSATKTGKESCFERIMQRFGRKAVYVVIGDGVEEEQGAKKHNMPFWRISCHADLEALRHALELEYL
Target sequence (Q15475 whole entry, looked up): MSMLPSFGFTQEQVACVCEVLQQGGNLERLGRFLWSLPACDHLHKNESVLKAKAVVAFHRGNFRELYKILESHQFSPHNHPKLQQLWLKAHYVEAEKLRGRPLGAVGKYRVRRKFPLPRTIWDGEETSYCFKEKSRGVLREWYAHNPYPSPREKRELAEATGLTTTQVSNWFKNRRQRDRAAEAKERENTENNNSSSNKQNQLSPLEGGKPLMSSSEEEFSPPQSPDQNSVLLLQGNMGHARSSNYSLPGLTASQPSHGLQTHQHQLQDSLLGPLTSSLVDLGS
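AlphaScreen luminescence read after one hour at 37 °C in darkness. Pin-transferred compounds met GST-Six1 and His-Eya2 protein (5X stock 250 nM/500 nM) plus glutathione donor and Ni-chelate acceptor beads (5X, 50 ug/mL).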
Sfp inh: Sfp phosphopantetheinyl transferase inhibition. Biochemical Sfp PPTase activity, qHTS. Potency, µM, for inactives: max response, negative = inhibition, hits mostly inhibitors. 310,000 tested, 3.5% active; active = well fitted inhibition curve with a large enough effect; inconclusive = small, poorly fitted or top-dose-only effect, or another doubt; inactive = no such curve, though single readings can be large or run the other way;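 note: the enzyme is Sfp with the accession as filed and its product quenches rhodamine fluorescence; potency is the fitted concentration of half-maximal effect; 0% = enzyme reaction without inhibitor and -100% = no enzyme wells; top concentration of the series not given in the record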
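Compounds were incubated with enzyme (final 15 nM) for 15 min at room temperature before substrate addition started the reaction. Fluorescence at 525 nm excitation, 598 nm emission was recorded immediately and after 30 minutes.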
* hit, by the source's call; ? = inconclusive; / = not tested or not shown; [ ] = remark or other dose.

SMILES	TRPV1 potentiator	D2 ag	D2 potentiator	CtBP-E1A inh	PINK1 expr mod	Six1-Eya2 inh	Sfp inh
CCNc1ccc(S(=O)(=O)N(C)C)cc1NCC(=O)Nc1ccccc1F	-5	-0.9	-2	7	0.2%	-5	-2%
O=C1CC(N2CCC(C(=O)N3CCCCC3)CC2)C(=O)N1 (stereo not given)	13	-2.4	-8	8	1.6%	12	9%
Cc1ccc(S(=O)(=O)N2CCN(C(=O)c3cc(S(=O)(=O)N(C)C)ccc3N3CCCC3)CC2)cc1	-26	-1.5	-4	6	0.1%	-3	/
CN(Cc1ccccc1)C(=O)COC(=O)c1cc(=O)c2ccccc2o1	/	0.9	-26	14	0.2%	5	/
O=C(c1cccc(F)c1)N(Cc1nc2ccccc2c(=O)[nH]1)C1CCCC1	3	-4.7	-6	/	0.3%	0	-14%
CC(=O)c1csc(Nc2ccccc2Cl)n1	-1	-0.1	-8	11	-0.1%	16	-3%
CC1(C(=O)NCc2ccc(F)c(F)c2)Cc2c(-c3ccccc3)ccnc2O1 (stereo not given)	/	-2.5	-12	-8	4.6%	2	/
Cc1ccc(CN2CCC(CO)(CC3CCCCO3)CC2)o1 (stereo not given)	2	-4.6	-19	-13	0.4%	1	9%
COc1ccc(-c2nc(CS(=O)(=O)CC(=O)Nc3ccc(Cl)cc3)c(C)o2)cc1	16	-2.9	-8	3	1.7%	-1	?
O=C(Nc1cccc(F)c1)c1ccc(CSc2ccccc2)o1	2	-4.2	-3	-7	0.0%	-13	3%
Cc1ccc(CSc2nnc(C)c(=O)[nH]2)cc1	?	-5.6	-6	/	-0.7%	7	15%
CCOC(=O)C1CCN(C(=O)COC(=O)c2c(C)c(CC)nc3ccccc23)CC1	/	2.3	9	-3	-0.7%	1	/
CCSc1nnc(NC(=O)C2CC=CCC2C(=O)O)s1 (stereo not given)	20	-1.1	-2	1	-0.3%	-4	16%
Cc1ccc2c(c1)N(C(=O)CCC(=O)N1CCC(C(N)=O)CC1)CCO2	11	-5.6	0	-5	-0.5%	-4	22%
O=C(O)C[C@H]1c2ccccc2S(=O)(=O)N1C1CCCC1	/	-3.9	-3	8	-0.3%	2	/
NC(=O)Cn1c(S(=O)(=O)Cc2ccccc2)nc2ccccc21	/	-0.9	0	5	0.7%	1	/
ClC(Cl)(Cl)C1=NCc2nnn(Cc3ccccc3)c2N1	/	-5.4	-7	0	-0.7%	15	/
O=C(c1cccc(S(=O)(=O)NCCOc2ccccc2)c1)N1CCN(c2ncccn2)CC1	11	6.1	-11	1	-0.5%[38.3 µM]	-1	2%
Cc1oc(-c2ccccc2)nc1C(=O)OCC(=O)NC(=O)NCC(C)C	-2	0.7	3	3	1.7%	-2	6%
Cn1c(=O)c2cc(NC(=O)NCCc3cccs3)ccc2n1-c1ccc(C(C)(C)C)cc1	/	-1.9	-7	1	4.9%	1	/
CC(=O)Nc1c(C(=O)N2CCN(c3ccccn3)CC2)cnn1-c1ccc(C)cc1	7	-2.3	-2	-2	0.9%	-4	8%
COc1cccc(/C=N\NC(=O)c2sc(N)nc2C)c1OC	7	-1.1	-7	-10	-1.1%	-15	-2%
CC(C)[C@H](CO)Nc1nc(Nc2ccc(Cl)c(C(=O)O)c2)c2ncn(C(C)C)c2n1	-7	-1.9	-5	-5	-1.5%	-4	8%
CCCN(CC1CC1)c1nc(C)nc(Nc2c(Cl)cc(Cl)cc2Cl)c1Cl	/	-7.6	-3	16	22%	-1	-6%
CCC(C)(c1nnnn1-c1c(C)cccc1C)N(N=O)c1ccccc1Cl (stereo not given)	-1	0.5	0	-6	-2.0%	-3	13%
COc1ccc(NC(=O)CN(c2ccc(C)cc2)S(C)(=O)=O)c(OC)c1	9	-1.8	-22	1	-0.1%	2	15%
O=C(CSc1nnc(-c2c[nH]c3ccccc23)o1)c1ccccc1	10	1.3	2	9	18%[38.3 µM]	-3	2%
CC(C)(C)OC(=O)N[C@@H](Cc1ccccc1)C(=O)N1CCC(C(=O)N[C@@H](CCC(N)=O)C(=O)O)CC1	-5	-1.7	-11	/	0.7%	12	-3%
O=C(O)c1cnc(-c2ccccc2)nc1Oc1ccccc1	7	-0.1	0	-10	8.2%	-4	18%
NNC(=O)CS(=O)(=O)c1ccc(Cl)cc1	5	2.6	2	/	0.3%	5	-2%
CCOCCCNCc1ccc(OC)cc1	6	-1.3	-8	0	0.8%[38.3 µM]	4	-4%
O=S(=O)(c1ccc(Cl)cc1)N1CCN(Cc2ccncc2)CC1	-7	-3.2	-6	-2	-1.2%	8	-2%
CCCCn1c(N)c(N(CC(C)C)C(=O)CSCc2c(C)noc2C)c(=O)[nH]c1=O	-12	-2.1	-6	2	-0.2%	1	/
COc1cc(NC(=O)CN2C(=O)NC3(CCOc4ccccc43)C2=O)cc(OC)c1 (stereo not given)	10	9.7	0	0	3.6%	-1	/
COc1ccc(OCc2cc(C(=O)N3CCN(C4CCCC4)CC3)no2)c(Cl)c1	-16	0.1	-9	-3	0.1%	-9	0%
COc1cccc(/C=C/C(=O)Nc2ccc3nc4n(c(=O)c3c2)CCCC4)c1OC	17	1.0	2	-78*	2.7%	?	38%[activator]
Cc1nnc(N/N=C/c2ccc(O)c([N+](=O)[O-])c2)[nH]c1=O	-9	-3.8	-22	?	1.8%	?	?
CCOC(=O)c1sc(NC(=O)CSc2nc(-c3ccco3)cc(C(F)(F)F)n2)c(C#N)c1C	-18	-0.4	2	9	1.0%[38.3 µM]	-1	-1%
FC(F)(F)c1nnc(-c2ccccc2)nc1Sc1ccccc1	/	-8.0	-11	-6	4.6%	-18	-17%
CCN1CCN(c2oc(-c3ccccc3)nc2S(=O)(=O)c2ccc(C)cc2)CC1	-8	-1.4	-36	-5	1.2%	-28	/
O=C(c1cc(COc2cccc3cnccc23)on1)N1CCC(c2ccccc2Cl)C1 (stereo not given)	8	6.4	-11	/	4.0%	2	-18%
COc1ccc(CNc2nc3nc(-c4ccccc4)cc(=O)n3[nH]2)cc1OC	-4	0.8	-16	4	-2.7%	-1	16%
CCOC(=O)CN=C/C(C(=O)Nc1nccs1)=C(/C)O	4	-6.1	-1	5	-1.3%	4	10%
CCS(=O)(=O)Nc1ccc2c(c1)N(C(C)=O)c1ccccc1CC2	6	-3.0	-26	-2	-2.8%	1	3%
O=C(O)c1ccc(Cl)c(S(=O)(=O)Nc2cccc(C(=O)Nc3cccc(C(F)(F)F)c3)c2)c1	-2	-0.8	3	-11	1.9%	14	12%
CCOc1ccc(CCNC(=O)Nc2ccccc2)cc1OCC	-17	-4.9	-7	-4	5.8%	-3	12%
CNCc1c(OCc2ccccc2F)ccc2ccccc12	5	-2.7	-24	14	-1.3%	23	-1%
N#Cc1nc(-c2ccccc2Cl)oc1N1CCN(C(=O)c2ccco2)CC1	-12	-1.9	-6	-18	0.9%	-5	9%
COc1ccccc1-n1c(SCC(=O)N2CCCC2)nc2cccnc21	1	-2.6	-1	0	-0.7%	-1	-10%
CNC(=O)C[C@H]1C(=O)N(c2ccc(OC)cc2)C[C@@H]1C	/	-2.3	-3	-3	-1.0%	-1	/
O=C(N/C(=C/c1ccccc1Cl)C(=O)N1CCCCC1)c1ccco1	/	-3.9	-1	2	-1.2%	10	/
Cc1c(Cc2ccccc2)sc(NC(=O)Cc2ccccc2)c1C(N)=O	/	-4.0	-16	-5	7.6%	-1	/
COc1ccccc1OCCSc1nnc(C)n1-c1ccccc1	-2	0.1	-15	-1	-2.5%	1	10%
O=C(CCC(=O)N(CC(=O)NC1CCCC1)Cc1ccccc1Cl)Nc1nccs1	-4	-1.3	-4	-9	0.3%	2	14%
CCOC(=O)N1CCN(C(=O)c2cnn3c(C)c(Cc4ccc(C)cc4)c(C)nc23)CC1	1	-2.5	-18	-3	3.3%	-1	14%
COc1ccc(N=Cc2c(O)ccc3ccccc23)cc1	-6	2.3	-4	8	-0.1%	2	?
CC(=O)Nc1cnc2ccccc2n1	6	-1.3	1	-1	1.8%	-2	26%
CC1=C(C(=O)NCc2ccccc2)C(c2cccnc2)n2ncnc2N1 (stereo not given)	0	-1.2	-14	5	1.2%	-2	16%
Cc1[nH]oc(=O)c1N=Nc1c(Cl)cccc1Cl	10	-1.6	-6	6	3.9%	6	-20%
Cc1cccc(C(=O)N/N=C/c2ccoc2)c1	-1	1.6	-16	3	-0.1%	-3	11%

Brought forward from above: 5 entries; new compounds follow.
SMILES	TRPV1 potentiator	D2 ag	D2 potentiator	CtBP-E1A inh	PINK1 expr mod	Six1-Eya2 inh	Sfp inh
COc1ccc(N=Cc2c(O)ccc3ccccc23)cc1	-6	2.3	-4	8	-0.1%	2	?
CC(=O)Nc1cnc2ccccc2n1	6	-1.3	1	-1	1.8%	-2	26%
CC1=C(C(=O)NCc2ccccc2)C(c2cccnc2)n2ncnc2N1 (stereo not given)	0	-1.2	-14	5	1.2%	-2	16%
Cc1[nH]oc(=O)c1N=Nc1c(Cl)cccc1Cl	10	-1.6	-6	6	3.9%	6	-20%
Cc1cccc(C(=O)N/N=C/c2ccoc2)c1	-1	1.6	-16	3	-0.1%	-3	11%
CCOC(=O)c1c(N)nn(C(=O)C(C)C)c1-c1ccc(OC)cc1	-5	-5.5	-31	38	-2.5%	28	-6%
O=C(Nc1sc2c(c1C(=O)O)CCC2)C(=O)N1CCOCC1	-5	-2.7	-3	/	-0.3%	-9	79µM*
CCCCc1ccc(NC(=S)N2CCN(c3ccccn3)CC2)cc1	-12	8.7	-10	-11	3.9%	-6	24%
Clc1ccc(-n2cccc2/C=N/n2cnnc2)cc1	7	0.0	-19	1	1.1%	-6	-12%
CCN(C[C@H]1N[C@@](CC)(C(=O)OC)[C@H]2C(=O)N(Cc3ccccc3)C(=O)[C@@H]12)C(=O)Nc1ccc(C)cc1	/	-2.3	-9	2	8.3%	-11	/
CCOC(=O)c1ccc(Nc2ccc(C(C)=O)cc2)cc1	/	3.2	5	11	0.4%	7	/
CC(=O)c1c(N2CCOCC2)nc(=S)n(Cc2ccccc2)c1C	14	-7.0	2	0	2.9%	7	-16%
COc1ccc(C(=O)NC(=S)Nc2ccc3[nH]c(=O)[nH]c3c2)cc1Br	/	-2.6	-12	2	2.8%	7	/
Cc1cc(C)n(C(=O)C(C)n2nc([N+](=O)[O-])c(Br)c2C)n1 (stereo not given)	-3	-6.6	-5	10	-0.7%	?	-5%
CCN1C(=O)C(CC(=O)Nc2ccc(F)cc2)N(CCc2ccc(OC)cc2)C1=S (stereo not given)	6	-1.8	-7	-5	7.1%	-2	3%

High-throughput results from PubChem.
